VACV Venus inh = qHTS for Stage-Specific Inhibitors of Vaccinia Orthopoxvirus: Venus Reporter Primary qHTS; Potency, µM (highest dose often 36.5 µM), inactives show at the top dose activity change, negative = inhibition, most hits filed as inhibitors; 0.46% of 330,000 active; Vaccinia virus Venus reporter expression, fluorescence; active means well fitted inhibition curve with a large enough effect; inconclusive means small, poorly fitted or top-dose-only effect; inactive means no such curve, though single readings can be large or run the other way; tested in A549 cells; note: nearly all actives have a fitted effect of over 30% in size; inactives centre near -10
Vaccinia mCherry = qHTS for Stage-Specific Inhibitors of Vaccinia Orthopoxvirus: mCherry Reporter Primary qHTS; Vaccinia virus mCherry reporter infection, fluorescence; about a quarter of the inactives have no number; Potency, µM (highest dose often 36.5 µM), inactives show at the top dose activity change, negative = inhibition, actives largely listed as inhibitors; 0.63% of 310,000 active; AID 720579, 2013; active = well fitted inhibition curve with a large enough effect; inconclusive = small, poorly fitted or top-dose-only effect; inactive = no such curve, though single readings can be large or run the other way; tested in A549 cells; note: nearly all actives have a fitted effect of over 35% in size; inactives centre near -10
* hit, by the source's call; i = inactive; ? = inconclusive; . = no result given; & = joins results of further samples; [ ] = dose if it differs, or a comment. % is set by controls: 0 for no effect and ±100 for the full control effect; potency is the fitted concentration of half-maximal effect.

SMILES	VACV Venus inh	Vaccinia mCherry
COc1cccc(CNC(=O)Cn2cc3c(n2)-c2c(oc(C(=O)N4CCCC4)c2C)CC3)c1OC	-15%	-22%
COc1ccnc(Oc2ccc(C)cc2C)c1C#N	-16%	-13%
O=C(OCCN=C1NS(=O)(=O)c2ccccc21)c1cccc([N+](=O)[O-])c1	3%	-20%
Cc1ccccc1NC(=O)Cn1c(=O)n(CC2CCC(C(=O)NCCc3ccccc3)CC2)c(=O)c2ccccc21 (stereo unspecified)	?	?
Nc1ccc(Nc2ccccc2N)cc1	-4%	12%
O=C(c1ccccc1-c1nc(-c2ccc(Cl)cc2)no1)N1CCCC1	-19%	i
O=C1CC(c2ccc(F)cc2)C(n2cncn2)C(O)=C1C1NCCc2ccccc21 (stereo unspecified)	1%	-14%
O=C1CCCCC1C(Nc1ccc(Br)cc1)c1ccccc1 (stereo unspecified)	?	?
CC1(C)OC(=O)C=C(CC2NS(=O)(=O)OC3CCCCC23)O1 (stereo unspecified)	-6%	i
CCC(=NCCN1CCOCC1)c1c(O)n(C2CCCCC2)c(=O)[nH]c1=O	-5%[7.34 µM]	i[7.34 µM]
CC1(C)Nc2ccccc2C(=O)N1c1ccccc1	8%	-1%
COc1ccc(NC(=O)C(c2ccc(C)cc2)N(C)C(=O)Cc2cccs2)cc1 (stereo unspecified)	-14%&-13%	-7%
O=C(CNC(=O)C1CCCC1)Nc1ccccc1Br	0%	-3%
CCOC(=O)c1cccc(NC(=S)N2CCN(c3ncc4c(=O)c(C(=O)O)cn(CC)c4n3)CC2)c1	4%	-7%
CCCSc1nnc(CN2CCOCC2)n1C	-3%	i
COC(=O)c1ccc(NC(=O)C(=O)N2CCN(C(=S)Nc3cccc(OC)c3)CC2)cc1	-8%	i
CCS(=O)(=O)c1ccc(O)c(NC(=O)Nc2ccc(C(C)(C)C)cc2)c1	-29%	?
COc1ccc(OC)c(S(=O)(=O)n2cnc3cc(C)c(C)cc32)c1	?	.
COc1ccc(C)cc1S(=O)(=O)N(CC(=O)Nc1cccc([N+](=O)[O-])c1)c1cc(C)cc(C)c1	2%	-11%
CCOC(=O)N1CCN(C(=O)Cn2c(C)cc3ccccc3c2=O)CC1	-8%	-13%
CCCOc1ccc(CN2C(=O)C(=O)c3cccc(C)c32)cc1	-6%	-20%
CCCOC(=O)c1ccc(NC(=O)c2ccccc2OC)cc1	8%	i
O=C1NC(=O)N(Cc2ccccc2Cl)C(=O)/C1=C/c1cccs1	?	-15%
COc1ccc(C)cc1S(=O)(=O)N(CC(=O)N1CCCC1)c1ccc(C)cc1	-8%	-15%
CC1(C)CC(NS(=O)(=O)c2cccc3ccccc23)CC(C)(C)N1	-20%	-10%
CCCCCCCCS(=O)c1sc2nc(C)cc(C)c2c1N (stereo unspecified)	-18%	-6%[1.46 µM]
NC(=O)c1cccnc1Oc1ccc(Cl)cc1Cl	-8%	-16%
C=CCn1c(SCCC)nc(O)cc1=O	-2%	?
O=C(Cn1ccc2cc(S(=O)(=O)N3CCCCCC3)ccc21)NCCc1ccc(Cl)cc1	-12%	-13%
CC(=O)c1c(N2CCCCC2)nc(=S)n(-c2ccccc2)c1C	-4%	.

Some of the entries so far, as comma-separated lines.
Compound,VACV Venus inh,Vaccinia mCherry
O=C(CNC(=O)C1CCCC1)Nc1ccccc1Br,0%,-3%
CCOC(=O)c1cccc(NC(=S)N2CCN(c3ncc4c(=O)c(C(=O)O)cn(CC)c4n3)CC2)c1,4%,-7%
CCCSc1nnc(CN2CCOCC2)n1C,-3%,i
COC(=O)c1ccc(NC(=O)C(=O)N2CCN(C(=S)Nc3cccc(OC)c3)CC2)cc1,-8%,i
CCS(=O)(=O)c1ccc(O)c(NC(=O)Nc2ccc(C(C)(C)C)cc2)c1,-29%,?
COc1ccc(OC)c(S(=O)(=O)n2cnc3cc(C)c(C)cc32)c1,?,.
COc1ccc(C)cc1S(=O)(=O)N(CC(=O)Nc1cccc([N+](=O)[O-])c1)c1cc(C)cc(C)c1,2%,-11%
CCOC(=O)N1CCN(C(=O)Cn2c(C)cc3ccccc3c2=O)CC1,-8%,-13%
CCCOc1ccc(CN2C(=O)C(=O)c3cccc(C)c32)cc1,-6%,-20%
CCCOC(=O)c1ccc(NC(=O)c2ccccc2OC)cc1,8%,i
O=C1NC(=O)N(Cc2ccccc2Cl)C(=O)/C1=C/c1cccs1,?,-15%
COc1ccc(C)cc1S(=O)(=O)N(CC(=O)N1CCCC1)c1ccc(C)cc1,-8%,-15%
CC1(C)CC(NS(=O)(=O)c2cccc3ccccc23)CC(C)(C)N1,-20%,-10%
CCCCCCCCS(=O)c1sc2nc(C)cc(C)c2c1N (stereo unspecified),-18%,-6%[1.46 µM]
NC(=O)c1cccnc1Oc1ccc(Cl)cc1Cl,-8%,-16%

Continuation:
SMILES	VACV Venus inh	Vaccinia mCherry
O=C1C2=C(Nc3ccccc3SC2c2c(F)cccc2Cl)c2ccccc21 (stereo unspecified)	-29%	-22%
COc1cccc(-c2nc(CS(=O)(=O)CC(=O)NCCc3cc(OC)ccc3OC)c(C)o2)c1	-21%	-22%
O=C(Nc1cccc(F)c1)C1CCCN(S(=O)(=O)c2cccc3cccnc23)C1 (stereo unspecified)	-6%	-1%
Cc1ccc(C)c(NC(=O)CCN2C(=O)c3ccccc3Sc3ncccc32)c1	-4%	i
CCN(CC)c1ncnc2c1nnn2C	-3%	-13%
Cc1cc(Br)cc2c(C(=O)OCC(=O)c3ccccc3)cc(-c3ccccc3)nc12	-2%	-13%
CCc1ccccc1NC(=O)C1COc2ccccc2O1 (stereo unspecified)	-2%	-15%
CCC(=O)c1cc(F)c(N2CCN(S(=O)(=O)c3ccc(C)cc3)CC2)cc1C	-15%	-22%
Cc1nc(SCC(=O)Nc2ccccc2Cl)cc(-c2ccccc2)n1	-5%	-6%
CN(C(=O)c1ccc2c(c1)N(Cc1cccc(Cl)c1)C(=O)c1ccccc1S2=O)C1CCCCC1 (stereo unspecified)	-9%	-5%
Cc1cc(NC(=O)CN2C(=O)NC(Cc3ccccc3)C2=O)no1 (stereo unspecified)	-9%	.
COc1ccc(C(=O)NNS(=O)(=O)c2ccc(C)cc2)cc1	-10%	i
COc1ccc(NC(=O)CC2SC(=NCc3ccccc3OC)NC2=O)cc1 (stereo unspecified)	-8%	-7%
FC(F)(F)c1ccc(-c2noc(-c3ccccc3Br)n2)cc1	-12%	-13%
COc1ccc(S(=O)(=O)N(CC(=O)Nc2ccccc2Br)Cc2ccccc2)cc1	-10%	-25%
CCN(CC)c1ccc(C=Nc2ccc(C)cc2C)c(O)c1	-7%	?
COc1ccc(S(=O)(=O)NN(C)c2ncc(C(F)(F)F)cc2Cl)cc1	-17%	-6%
CCN(CC)S(=O)(=O)c1cc(-c2nnc(Nc3ccc(OC)c(C(N)=O)c3)c3ccccc23)ccc1C	?	?
O=C(NCc1cccs1)c1csc([C@@H]2C[C@H](O)[C@@H](CO)O2)n1	5%	-1%
Cc1noc(C)c1COC(=O)c1ccccc1NC(=O)c1ccco1	-12%	i
COc1ccc(S(=O)(=O)N2CC=C(c3ccccc3)CC2)cc1OC	-7%	-4%
CCCCN1C(=N)N([C@@H](CCC)CN2CCC[C@H]2CN2C(N)=NC[C@H]2C(C)C)C[C@H]1[C@H](C)CC	1%	i
COc1ccc(CCNC(=O)C2(c3ccccc3)CC2)cc1	-13%	i
CCCCOc1ccc(C(=O)N/C(=C\c2cccc([N+](=O)[O-])c2)C(=O)OC(C)C)cc1	-2%	.
CCc1nc2c(OCCc3cccc(OC)c3)cccn2c1N(C=O)Cc1ccc(OC)cc1	-17%	i
COc1ccccc1C1=CC(=O)C[C@H](c2ccc(F)cc2)C1	-19%	-13%
Cc1ccccc1NC(=S)N(Cc1ccco1)C(C)c1cccs1 (stereo unspecified)	-6%	-21%
Cc1cc(NC(=O)Cn2nc([N+](=O)[O-])c(Br)c2C)no1	-11%	-11%
CSc1nnc2n(-c3ccc(C)cc3)c(=O)c3c4c(sc3n12)COC(C(C)C)C4 (stereo unspecified)	?	?
COc1ccc(Nc2ncnc3sc(-c4ccccc4)cc23)cc1OC	-21%	i
Cc1cccc2sc(NNC(=O)c3cc(=O)c4ccccc4o3)nc12	-18%	i
C[C@H]1CN([C@@H](C)CO)C(=O)CCCn2nncc2CO[C@H]1CN(C)C(=O)Nc1cccc(Oc2ccccn2)c1	-16%	-15%
Cc1sc2ncn(CC(=O)NCCCC(=O)N3CCC(C)CC3)c(=O)c2c1C	-5%	-7%
CCNC(=O)C1=C(O)c2sccc2N(C)S1(=O)=O	4%	7%
Cc1cc(NC(=S)Nc2cccc3ccccc23)n[nH]1	-6%	-2%
CC(C)(Oc1ccc(Cl)cc1)C(=O)OCn1nnc2ccccc2c1=O	-3%	-9%
O=S(=O)(c1ccc(Br)cc1)N1CCN(c2nc(-c3ccccc3)nc3ccccc23)CC1	-12%	-2%
Cc1ccc(CNC(=O)C2CCN(S(=O)(=O)c3ccc4c(c3)CCCN4C(=O)C3CCC3)CC2)cc1	-1%	-7%
CC1(C)CC(=O)/C(=C(\O)CCCN2C(=O)c3ccccc3C2=O)C(=NCCO)C1	5%	-5%
Oc1ccc2cc(Br)ccc2c1CN1CCCC1	-13%	-23%
Nc1nc2ccc(N3CCOCC3)cc2s1	-21%	-17%
O=C(Nc1ccc(N2CCOCC2)cc1)c1ccc([N+](=O)[O-])cc1	-3%	?
O=C(CCc1ccccc1)NNC(=S)Nc1ccc(F)cc1	-10%	-2%
CN(C)CCn1c2c(c(SCC(=O)Nc3ccccc3)nc1=O)CCCC2	-12%	-11%
CC(=O)C1=C(O)C(=O)N(Cc2cccnc2)C1c1ccccc1 (stereo unspecified)	-3%	-15%
Cc1cc(C)c2c(=O)n(CC(=O)Nc3ccc(Cl)cc3)sc2n1	-27%	0%
Cc1csc(NC(=O)CSc2nnc(NC(=O)C3CC(=O)N(c4ccccc4)C3)s2)n1 (stereo unspecified)	-1%	i
CCN(CC)C(=O)Cn1cc(S(=O)(=O)CC(=O)Nc2cc(OC)ccc2OC)c2ccccc21	-9%	-21%
CCCN1CCC[C@@H](c2cccc(O)c2)C1	-2%	i
COc1ccc(NC(=O)c2sc3nc(N4CCOCC4)c4c(c3c2N)CCCC4)cc1	-25%	?
Additional entries follow:
SMILES	VACV Venus inh	Vaccinia mCherry
CCc1ccc(S(=O)(=O)c2nnn3c2nc(N2CCOCC2)c2sccc23)cc1	-20%	-10%
COc1ccc(Nc2nc(N)nc(CN3CCN(c4ccccn4)CC3)n2)cc1	?	.
COc1ccc(C2=NNC(=O)C2(C)Br)cc1 (stereo unspecified)	-8%	i
CC(C)NC(=O)CCNC(=O)c1ccc(F)cc1	-12%	0%
O=S(=O)(ON(c1ccccc1)S(=O)(=O)c1ccccc1)c1ccccc1	-16%	i
CCCc1cc(=O)n2[nH]c(NCc3ccccc3OC)nc2n1	-1%	-13%
CN(C(=O)c1cccc(NC(=O)Cc2cccc(NC(=O)C3CCN(C(=O)C4CCCCC4)CC3)c2)c1)C1CC1	-18%	i
O=C(NCC1CCCCC1)c1ccc(=O)[nH]c1	3%	-9%
CCOc1cc(C(=O)N/N=C/c2ccsc2)cc(OCC)c1OCC	-16%	-29%
CCOc1ccc(N2CC(NC(=O)/C=C\c3ccc4c(c3)OCO4)CC2=O)cc1 (stereo unspecified)	-11%	-10%
CCCn1c(O)c(N=NC(=O)c2cccnc2)c2cc(Br)ccc21	-9%	?
Cc1ccc(OCC(=O)Nc2ccc(N3CCN(S(C)(=O)=O)CC3)cc2)cc1	-6%	-2%
CCc1ccc(N(CC(=O)NC2CCCC2)C(=O)CCC(=O)Nc2ccccn2)cc1	-5%	i
CC(C)c1nc2ccc(C(=O)NCCCN3CCN(c4ccccc4)CC3)cc2o1	-18%	-10%
COc1cccc(-c2ccc3c(c2)N(Cc2ccc(F)cc2)C(=O)C(C)S3)c1 (stereo unspecified)	-1%	-12%
O=c1c2cn[nH]c2[nH]c(=S)n1-c1ccccc1F	-3%	-7%
O=C(O)/C=C/c1ccc2c(c1)OCO2	-17%	-3%
COc1ccc(NC(=S)N(Cc2ccc(N(C)C)cc2)Cc2ccco2)cc1	-23%	-16%
COc1ccc2sc(-c3ccc(N(C)C)cc3)c(C#Cc3cncn3C)c2c1	?	?
CCOC(=O)CSC(C)C(=O)Nc1nnc(C(C)C)s1 (stereo unspecified)	-4%	23%
O=C1C2CCCN2C(=O)N1CCCCN1CCN(CCO)CC1 (stereo unspecified)	-5%	i
COc1ccc(CCNC(=O)c2c(C)nn(-c3ccc(F)cc3)c2-n2cccc2)cc1OC	-20%	-26%
COc1ccc(-c2nc(NC(=O)c3ccco3)sc2C)cc1	?	?
CCc1ccccc1-n1c(SCC(=O)N2CCCC2)nc2[nH]ncc2c1=O	-12%	i
COC[C@]12CN(C)C3C4[C@H](OC)[C@H]1C3([C@@H](OC)C[C@H]2O)[C@@H]1C[C@@]2(O)[C@H](OC(=O)c3ccccc3)[C@@H]1[C@]4(OC(C)=O)[C@@H](O)[C@@H]2OC	-2%	6%
N#Cc1ccc(S(=O)(=O)N2CCc3[nH]c4ccc(F)cc4c3C2)cc1	-15%	-16%
CC(=O)Nc1ccc(SC(Sc2ccc(NC(C)=O)cc2)c2ccccc2)cc1	-21%	-15%
CC(C)C(=O)Nc1ccc(NC(=S)NC(=O)c2cc3ccccc3o2)cc1	-7%	i
COc1cccc(/C=C/c2nc(C#N)c(N3CCN(C)CC3)o2)c1	4%	-7%
O=C(NC1CCCCCCC1)c1c(O)c2ccccc2[nH]c1=O	2%	5%
